NPYLR7 ag: activates Aedes aegypti NPYLR7 receptor | HEK293T NPYLR7/Galpha15, GCaMP6s calcium fluorescence | activation, % at 10 µM | 0.15% of 270,000 active | AID 1259423; in the data active = activation above about 40%;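 note: 0% = vehicle and 100% = reference agonist at the receptor; some compounds past the cut are filed as inactive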
NPYLR7 ag max-min: recorded beside NPYLR7 ag, whose call it bears; activation, %; measured here: Max-Min RFU normalised activation; some inactives read as strong as hits;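 span of the calcium signal over five minutes; 0% = vehicle and 100% = native peptide agonist; compound fluorescence can raise it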
Starred values were filed as active, the others as inactive; & = joins results of further samples.

CN(Cc1ccccc1)c1cc(-c2ccccc2)nc(SCc2ccc(C(=O)NCCc3ccccn3)cc2)n1 was read as NPYLR7 ag 10 and NPYLR7 ag max-min 0.
Screening CC(C)Sc1nnc(C2CC2)n1-c1ccccc1 returned NPYLR7 ag -2 and NPYLR7 ag max-min -3.
O=S(=O)(NC1CCSc2ccc(F)cc21)c1ccccc1 (stereo not given) was read as NPYLR7 ag 7 and NPYLR7 ag max-min 4.
CN(Cc1ccsc1)C(=O)C1CCC(=O)N(CCc2ccccn2)C1 (stereo not given) was read as NPYLR7 ag 8&11 and NPYLR7 ag max-min 8&6.
`CC(CCc1c[nH]c2ccccc12)NCc1n[nH]c2c1CCC2` (stereo not given) gave NPYLR7 ag 1 and NPYLR7 ag max-min -9.
For COc1ccc(C(=O)N2CCC[C@H]2C(=O)OCCc2ccc(OC)c(OC)c2)c(OC)c1 the results were NPYLR7 ag -3 and NPYLR7 ag max-min -6.
CCC(Nc1nc(N(C)C)nc2c1CCNC2)c1nc2ccc(C)cc2[nH]1 (stereo not given) was read as NPYLR7 ag -4 and NPYLR7 ag max-min -7.
`O=C(NC1CCCCC1)N1CCN(c2cnc3ccccc3n2)CC1` gave NPYLR7 ag 3 and NPYLR7 ag max-min 1.
`CCCc1[nH]n(-c2ccc(F)cc2)c(=O)c1C1=C([n+]2cccc(C)c2)C(=O)N(C2CCCCC2)C1=O` gave NPYLR7 ag -4 and NPYLR7 ag max-min -2.
For COCCOCC(=O)NC1CCc2[nH]c3ccc(Cl)cc3c2C1 (stereo not given) the results were NPYLR7 ag -2 and NPYLR7 ag max-min 11.
Cc1sc2nc(SCC#N)n(Cc3ccco3)c(=O)c2c1C was read as NPYLR7 ag 3 and NPYLR7 ag max-min 2.
For COc1ccccc1N1C(=S)SC2CS(=O)(=O)CC21 (stereo not given) the results were NPYLR7 ag 5&4 and NPYLR7 ag max-min 1&1.
For CCc1ccc(CN2CCCC(C(=O)Nc3ccccc3-c3ccc(OC)cc3)C2)o1 (stereo not given) the results were NPYLR7 ag 2 and NPYLR7 ag max-min -3.
For CC(C)(C)OC(=O)N1CCN(CC(O)CN2CCCC2CO)CC1 (stereo not given) the results were NPYLR7 ag 2 and NPYLR7 ag max-min 0.
`COC(=O)c1ccc2oc(=O)n(C3CCN(C(=O)Cc4ccccc4)CC3)c2c1` gave NPYLR7 ag 11 and NPYLR7 ag max-min 7.
For N#Cc1cc2c(=O)n3ccccc3nc2n(-c2ccc(Cl)cc2)c1=O the results were NPYLR7 ag -10 and NPYLR7 ag max-min -7.
For CC(=O)O[C@@H](C)C(=O)N1CCN(CC(OCc2ccc(C(F)(F)F)cc2)c2ccc(Cl)cc2)CC1 (stereo not given in full) the results were NPYLR7 ag -3 and NPYLR7 ag max-min 11.
For Cc1cc(C(F)(F)F)c2c(n1)sc1c(O)cc(=O)[nH]c12 the results were NPYLR7 ag -3 and NPYLR7 ag max-min -3.
Screening O=C(OCC(=O)C12CC3CC(CC(C3)C1)C2)c1ccc2[nH]ncc2c1 returned NPYLR7 ag 2 and NPYLR7 ag max-min -1.
Screening COc1cccc(Cn2ccnc2-c2ccc(C)o2)c1OC returned NPYLR7 ag 9 and NPYLR7 ag max-min 5.
CC(=O)OC(C(=O)NCC1Cc2cc(Oc3ccccc3)ccc2O1)c1ccccc1 (stereo not given) was read as NPYLR7 ag 5 and NPYLR7 ag max-min 6.
For CNC(=O)C1CCN(Cc2cccc(C(=O)Nc3cnn(C)c3)c2)C1 (stereo not given) the results were NPYLR7 ag -5 and NPYLR7 ag max-min -9.
For Cc1[nH]c(=O)[nH]c(=O)c1Cc1nnc(SCc2c(F)cccc2Cl)o1 the results were NPYLR7 ag 2 and NPYLR7 ag max-min 1.
CCOC(=O)C1(Cc2ccccc2C)CCCN(C(=O)CN2CCCCC2=O)C1 (stereo not given) was read as NPYLR7 ag 1&-13 and NPYLR7 ag max-min -1&-15.
CCCn1c(N)c(C(=O)COC(=O)Cn2cc(C(F)(F)F)ccc2=O)c(=O)[nH]c1=O was read as NPYLR7 ag -2 and NPYLR7 ag max-min -3.
For Cc1cccc(-n2cc(CN3CCN(C)C(C(=O)O)C3)cn2)c1 (stereo not given) the results were NPYLR7 ag -1 and NPYLR7 ag max-min -1.
Cc1nn(CC(C)C)c(C)c1CCC(=O)Nc1ncn[nH]1 was read as NPYLR7 ag -2 and NPYLR7 ag max-min -3.
For COC(=O)c1ccc(NC(=O)CCN2CCn3nc(C)cc3C2)cc1 the results were NPYLR7 ag 15 and NPYLR7 ag max-min 6.
`O=C(O)Cc1cccc(OCCCN(Cc2cccc(C(F)(F)F)c2Cl)CC(c2ccccc2)c2ccccc2)c1` gave NPYLR7 ag -10 and NPYLR7 ag max-min -16.
Screening COc1ccccc1/C=C/C1=NC(=C\c2ccc(OC)c(OC(C)=O)c2)/C(=O)O1 returned NPYLR7 ag 11 and NPYLR7 ag max-min 11.
Screening CC1CN(C(=O)/C=C/c2nc3ccccc3[nH]c2=O)CC(C)O1 (stereo not given) returned NPYLR7 ag 18 and NPYLR7 ag max-min 32.
For CCOC(=O)C(C1=CC(=O)C(=O)c2ccc(Br)cc21)=C(C)O the results were NPYLR7 ag 26 and NPYLR7 ag max-min 26.
CCOCCSc1nc(-c2ccccc2C)nc2c1c(=O)n(C)c(=O)n2C was read as NPYLR7 ag -6 and NPYLR7 ag max-min -11.
CCCCCCC1(C)NC(=O)N(CC(=O)NC(=O)NC2CCCCC2)C1=O (stereo not given) was read as NPYLR7 ag 1 and NPYLR7 ag max-min -1.
`CN1C(=C/C=N\NC(=O)Nc2cccc(C(F)(F)F)c2)C(C)(C)c2ccccc21` gave NPYLR7 ag -1 and NPYLR7 ag max-min -7.
`CC(CCn1cccn1)NC(=O)CC12CC3CC(CC(C3)C1)C2` (stereo not given) gave NPYLR7 ag -2 and NPYLR7 ag max-min -4.
For CCn1nc(C(=O)NNC(=O)c2sccc2C)c2ccccc2c1=O the results were NPYLR7 ag 6 and NPYLR7 ag max-min -2.
Screening CCCC1=NN(C(C)=O)C(C(=O)NN2CCCC2)O1 (stereo not given) returned NPYLR7 ag 1 and NPYLR7 ag max-min 26.
Screening Cc1cc(C)n(-c2ccc(C(=O)N3CCCC(CO)(CCOc4ccccc4)C3)cc2)n1 (stereo not given) returned NPYLR7 ag 13 and NPYLR7 ag max-min 5.
Screening C[C@H]1C[C@H]2[C@@H]3CCC4=CC(=O)C=C[C@]4(C)[C@@]3(F)[C@@H](O)C[C@]2(C)[C@@]1(O)C(=O)CO returned NPYLR7 ag -5 and NPYLR7 ag max-min -9.
For CC(C)C1CN(S(=O)(=O)N(C)C)CCC(=O)N1CC1CC1 (stereo not given) the results were NPYLR7 ag 2 and NPYLR7 ag max-min -1.
For BrC1CCCCCC(Br)C12OCCO2 (stereo not given) the results were NPYLR7 ag 0 and NPYLR7 ag max-min 4.
Screening CC(=NNC(=O)NC1CCCCC1)C1CCCCC1 returned NPYLR7 ag 3 and NPYLR7 ag max-min 1.
O=C(C1CCCO1)N1CCCN(Cc2cc3n(n2)CCCNC3)CC1 (stereo not given) was read as NPYLR7 ag 4 and NPYLR7 ag max-min 2.
`COc1cccc2sc(N(Cc3cccnc3)C(=O)c3ccc(Cl)s3)nc12` gave NPYLR7 ag -5 and NPYLR7 ag max-min -2.
O=C(CC1(O)C(=O)N(CCc2ccccc2)c2ccccc21)c1cccc(-n2cccc2)c1 (stereo not given) was read as NPYLR7 ag 14 and NPYLR7 ag max-min 11.
`COc1ccc2[nH]c(=O)c(CN3CCN(Cc4ncccc4C)CC3)cc2c1` gave NPYLR7 ag 3 and NPYLR7 ag max-min 16.
For COCc1ccc(C(=O)Nc2cc(S(C)(=O)=O)ccc2C)cc1 the results were NPYLR7 ag 1 and NPYLR7 ag max-min 0.
Screening Cc1nccn1-c1ccc(NC(=O)C2CCCN(Cc3ccn[nH]3)C2)cc1 (stereo not given) returned NPYLR7 ag 8 and NPYLR7 ag max-min 2.
Screening CC(NC(=O)CCN1CCSC1=O)c1cc2ccccc2o1 (stereo not given) returned NPYLR7 ag -1 and NPYLR7 ag max-min -1.
Screening Brc1ccc2nc(SCc3nc4ccccc4n3Cc3ccccc3)[nH]c2c1 returned NPYLR7 ag -3 and NPYLR7 ag max-min -5.
CN(C)C(=O)c1ccccc1OCc1cccs1 was read as NPYLR7 ag 5 and NPYLR7 ag max-min 4.
For O=C(CS(=O)Cc1ccc(Cl)cc1Cl)N1CCc2sccc2C1 (stereo not given) the results were NPYLR7 ag -4 and NPYLR7 ag max-min -9.
`CN1CCN(C(=O)c2cnn(-c3ccccc3)c2NC(=O)c2ccco2)CC1` gave NPYLR7 ag 2 and NPYLR7 ag max-min 1.
CC(C)n1cc(C(=O)N2CCN(CC(=O)c3ccccc3)CC2)c2nn(-c3ccccc3)c(=O)c-2c1 was read as NPYLR7 ag -2 and NPYLR7 ag max-min -7.
COCc1nc(NCc2nnc3n2CCCCC3)c2cnn(C)c2n1 was read as NPYLR7 ag 17 and NPYLR7 ag max-min 5.
`Cc1c(C(=O)NCc2ccc(F)cc2)sc(=O)n1Cc1ccc(OC(F)(F)F)cc1` gave NPYLR7 ag 4 and NPYLR7 ag max-min 3.
Screening S=C(Nc1ccccc1)Nc1ccc2cn[nH]c2c1 returned NPYLR7 ag 2 and NPYLR7 ag max-min -8.
For CCC(C)C(NC(=O)c1cccc(Br)c1)C(=O)Nc1nnc(-c2ccc(Br)cc2)s1 (stereo not given) the results were NPYLR7 ag 0 and NPYLR7 ag max-min 6.
For Cc1noc(C)c1CCC(=O)NC1CCCc2c1cnn2-c1ccc(F)cc1F (stereo not given) the results were NPYLR7 ag -8 and NPYLR7 ag max-min -8.

Two records drawn at random from the list so far, as already listed:
Screening Brc1ccc2nc(SCc3nc4ccccc4n3Cc3ccccc3)[nH]c2c1 returned NPYLR7 ag -3 and NPYLR7 ag max-min -5.
`CN1CCN(C(=O)c2cnn(-c3ccccc3)c2NC(=O)c2ccco2)CC1` gave NPYLR7 ag 2 and NPYLR7 ag max-min 1.

Other records follow.
`O=C(NCCOc1ccccc1F)[C@H]1Cc2ccccc2CN1` gave NPYLR7 ag 0 and NPYLR7 ag max-min -3.
Screening Cc1c(OC(C)C)cc2c(c1O)C(=O)C21OCCO1 returned NPYLR7 ag -4 and NPYLR7 ag max-min -5.
For CCOC(=O)c1c(NC(=O)C(OC(C)=O)c2ccccc2)c(-c2ccc3c(c2)OCO3)cn1C (stereo not given) the results were NPYLR7 ag 1 and NPYLR7 ag max-min -2.
Screening Cc1ccc2[nH]c(CCCNC(=O)[C@@H]3C[C@H](N)CN3C)nc2c1C returned NPYLR7 ag -5 and NPYLR7 ag max-min -9.
For CCc1cc(N2CCN(c3cccc(C(F)(F)F)c3)CC2)nc(SCc2ccc(C(=O)NCCN(C)C)cc2)n1 the results were NPYLR7 ag 14 and NPYLR7 ag max-min 16.
CCc1cc(C(=O)NCc2c(C)ncc3c2CCN(C(=O)Cc2cccc(C(F)(F)F)c2)C3)no1 was read as NPYLR7 ag 1 and NPYLR7 ag max-min -1.
CC(=O)NC(C)(C)c1noc(-c2cccc3ccc(C)nc23)n1 was read as NPYLR7 ag 3 and NPYLR7 ag max-min 6.
COc1cccnc1NC(=O)C1C2CC3CC(C2)CC1C3 (stereo not given) was read as NPYLR7 ag -1 and NPYLR7 ag max-min -4.
Screening COCCN1C(=O)N(Cc2cccnc2)C(=O)C12CCN(Cc1cc3ccccc3s1)CC2 returned NPYLR7 ag -11 and NPYLR7 ag max-min -9.
For Cc1ccc(CN2CCN(Cc3ccc(O)c(Cl)c3)CC2=O)cc1 the results were NPYLR7 ag -6 and NPYLR7 ag max-min -13.
For O=C(CNC(=O)C1CCCCC1)NCCSCc1ccccc1F the results were NPYLR7 ag 1 and NPYLR7 ag max-min -1.
For COc1ccc(-c2cc(=O)n(CC(=O)Nc3ncccc3C)cn2)cc1 the results were NPYLR7 ag 7 and NPYLR7 ag max-min 3.
CC(=O)N(Cc1cc(NC(=O)c2ccccc2Cl)ccc1N(C)C)CC1CC1 was read as NPYLR7 ag 17 and NPYLR7 ag max-min 16.
For CCC(C)OC(=O)C1=C(C)NC(=O)NC1c1cccc(Oc2ccccc2)c1 (stereo not given) the results were NPYLR7 ag -5 and NPYLR7 ag max-min -9.
`Cc1c(C)n2c3c(=O)n(CCN4CCCCC4)c(=O)n(C)c3nc2n1-c1ccccc1` gave NPYLR7 ag 16 and NPYLR7 ag max-min 5.

Molecules from the list above with an aryl methoxy group:
For COc1ccc(C(=O)N2CCC[C@H]2C(=O)OCCc2ccc(OC)c(OC)c2)c(OC)c1 the results were NPYLR7 ag -3 and NPYLR7 ag max-min -6.
For COc1ccccc1N1C(=S)SC2CS(=O)(=O)CC21 (stereo not given) the results were NPYLR7 ag 5&4 and NPYLR7 ag max-min 1&1.
For CCc1ccc(CN2CCCC(C(=O)Nc3ccccc3-c3ccc(OC)cc3)C2)o1 (stereo not given) the results were NPYLR7 ag 2 and NPYLR7 ag max-min -3.
Screening COc1cccc(Cn2ccnc2-c2ccc(C)o2)c1OC returned NPYLR7 ag 9 and NPYLR7 ag max-min 5.
Screening COc1ccccc1/C=C/C1=NC(=C\c2ccc(OC)c(OC(C)=O)c2)/C(=O)O1 returned NPYLR7 ag 11 and NPYLR7 ag max-min 11.
`COc1cccc2sc(N(Cc3cccnc3)C(=O)c3ccc(Cl)s3)nc12` gave NPYLR7 ag -5 and NPYLR7 ag max-min -2.
`COc1ccc2[nH]c(=O)c(CN3CCN(Cc4ncccc4C)CC3)cc2c1` gave NPYLR7 ag 3 and NPYLR7 ag max-min 16.
COc1cccnc1NC(=O)C1C2CC3CC(C2)CC1C3 (stereo not given) was read as NPYLR7 ag -1 and NPYLR7 ag max-min -4.
For COc1ccc(-c2cc(=O)n(CC(=O)Nc3ncccc3C)cn2)cc1 the results were NPYLR7 ag 7 and NPYLR7 ag max-min 3.

Not all compounds are listed; rates above refer to the full screens.
